# High-throughput results deposited in PubChem by Fisher Drug Discovery Resource Center.
# NPYLR7 agonist = agonists of mosquito NPYLR7 receptor, primary screen, cell-based, Aedes aegypti, calcium fluorescence, mosquito biting behavior; actives 0.15% (n = 270,000); HEK293T NPYLR7/Galpha15, GCaMP6s calcium fluorescence; Aedes aegypti neuropeptide Y-like receptor 7 (NPYLR7); activation, % at 10 µM; in the data active = activation above about 40%;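 also: 0% = vehicle and 100% = reference agonist at the receptor; some compounds past the cut are filed as inactive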
# NPYLR7 agonist max-min = recorded beside NPYLR7 agonist, whose call it bears; activation, %; measured here: Max-Min RFU normalised activation; some inactives read as strong as hits;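 span of the calcium signal over five minutes; 0% = vehicle and 100% = native peptide agonist; compound fluorescence can raise it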
# Starred values were filed as active, the others as inactive; & = joins results of further samples. Some of the compounds tested, so the mix of outcomes need not match the whole.
Molecule,NPYLR7 agonist,NPYLR7 agonist max-min
Cc1ccc(C(=O)N(CC(=O)Nc2nc(CC(=O)N3CCCC3)cs2)C2CC2)cc1,-10,-3
COCCCNC(=O)C(C1CCCC1)N1CCN(C(=O)c2ccc(OC)cc2)CC1 (stereo not drawn),-3,3
CN(Cc1ccccc1O)C(=O)C1CCN(c2ccc(Cl)cn2)CC1,2,1
O=C(CCC(=O)N1CCN(c2ccccn2)CC1)Nc1ccc2ncsc2c1,-11,-14
CC1CCC2(C)c3[nH]c4ccccc4c3CCCN2C1=O (stereo not drawn),7,7
CCCn1ccnc1CN1CC(N2CCCCC2C)C1 (stereo not drawn),-3,-5
CC(c1cccc([N+](=O)[O-])c1)N(C)C(=O)c1ccc2c(=O)n3c(nc2c1)CCC3 (stereo not drawn),9,5
CCOC(=O)Cn1nc(C)c2c1NC(=O)CC2C(F)(F)F (stereo not drawn),1,38
COc1cn(CC(=O)Nc2cc(C(F)(F)F)ccc2Cl)c(CN2CCC(C)CC2)cc1=O,1,1
NC(=O)c1cn(CC2Cc3ccccc3O2)nc1-c1ccccc1 (stereo not drawn),2,1
CC(C)(C)c1cc(NC(=O)Cc2ccccc2Br)n(-c2cc(Cl)ccc2Cl)n1,15,11
O=C(CCc1nc2ccccc2[nH]1)N1CCc2ccccc2C1,0,2
CSc1cc(C(=O)Nc2ccc(C#N)cc2Br)ccn1,-6,-7
NC(=O)[C@@H]1CCCN1C(=O)c1cn(-c2ccccc2)nn1,14,16
Cc1cccc(CSc2ccc3nnc(-c4cccs4)n3n2)c1,1,0
OC[C@H]1CCN(Cc2ccc(Oc3ccc(Cl)cc3)cc2)C[C@H]1O,8,10
COc1ccccc1NC(=O)Cn1c(=O)n(Cc2ccc3c(c2)OCO3)c(=O)c2oc3ccccc3c21,-5,-14
Cc1ccc(F)c(-c2cc(N3CCOCC3)ncn2)c1,12,8
COc1cccc2c1NC(=O)C(OC)(OC)C2=O,6,9
Cc1ccsc1CNc1ccc(-c2nc(C)c(C)c(=O)[nH]2)cn1,-4,-4
COc1ccc(/C=C(/Cl)c2nc3ccsc3c(=O)[nH]2)cc1,-2,-1
CC(=O)N[C@@H]1CCN(C(=O)CN2C(=O)C(Oc3ccccc3)C2c2cccnc2)C1 (stereo partly drawn),12,10
O=c1c(SCc2ccccc2Cl)nccn1-c1ccc2c(c1)OCCO2,-5,-4
CC(C)(C)c1ccc(NC(=O)c2ccc(-n3nc(-c4ccc(Cl)cc4)cc3N)cc2)cc1,-8,-10
Cn1c(C2CCN(S(C)(=O)=O)CC2)nn(CC(=O)N2CCOCC2)c1=O,-5,2

# New compounds follow:
Molecule,NPYLR7 agonist,NPYLR7 agonist max-min
Cn1cc(-c2cc3cnc(Nc4ccc5c(c4)OCO5)cc3n2Cc2ccccc2)cn1,29,32
CN(C)c1ccc(CC(=O)N2CCCCC2c2cc(C(=O)Nc3cccc(C#N)c3)no2)cc1 (stereo not drawn),-3,-5
CCCCCCCCc1c(O)nc(SCCN(CCC)CCC)[nH]c1=O,-2,-4
O=c1oc2ccccc2cc1-c1csc(NN=C2CCCC2)n1,3&-3,-2&-4
CN1C[C@H](NC(=O)c2cccc3nccnc23)C[C@H]1CO,9,6
COCCCN(CC(=O)N(Cc1cccn1Cc1ccc(Br)cc1)C1CCCCC1)C(=O)c1cc(OC)cc(OC)c1,-7,3
Cc1nn(C)c(C)c1S(=O)(=O)NC(=O)/C=C(/c1ccc(Cl)cc1)C(F)(F)F,1,21
CCN(CC)C(=O)c1cc(NC(=O)Nc2ccc(Cl)c(Cl)c2)ccc1N1CCCC1,19,26
COc1ccc(CCOC(=O)[C@@H]2CCCN2C(=O)CCCC(=O)c2ccccc2)cc1OC,-3,-6
C=C(Br)Cn1c(Cc2cccc3ccccc23)nc2ccccc21,-1,-4
COc1ccc(C)c2sc(N(CCCN3CCOCC3)C(=O)c3nc4ccccc4s3)nc12,-1,-7
CCC(=O)Nc1ccc(Nc2nc(C)cc(Nc3ccc(OC)cc3)n2)cc1,12,4
O=C(c1ccc2c(c1)OCO2)N(Cc1ccccn1)CC1CCCO1 (stereo not drawn),8,-7
O=C(CN1CCCC1c1nc2ccccc2s1)NC1CCCC1 (stereo not drawn),6,1
CC(C)NC(=O)N(Cc1c(-c2ccccc2)noc1N1CCCC1)C(C)C,-3,-1
COC1CN(C(=O)Cn2nc(-c3ccccc3)c3ccccc3c2=O)CC(=O)N(Cc2ccccc2)C1 (stereo not drawn),6,-7
CC(C)C(C)(C#N)NC(=O)Cn1c(-c2cccnc2)noc1=O (stereo not drawn),2,0
CN(C)c1ccc(NC(=O)c2cccc(F)c2)cc1CN(CC1CCCO1)S(C)(=O)=O (stereo not drawn),4,12
COC(=O)COc1ccc2c(=O)c(-c3csc(C)n3)coc2c1,-6,-13
Cc1ccn(CCC(=O)N2CCCC(N3CCN(c4ccccc4C)CC3)C2)n1 (stereo not drawn),2,0
CCOCCn1c(=O)c2c(nc3n(-c4ccc(C)c(C)c4)c(C)cn23)n(C)c1=O,5,4
CC1(C(=O)NS(=O)(=O)c2ccccc2OC(F)(F)F)CCN1C(=O)C1(c2ccccc2)CC1 (stereo not drawn),2,2
Cc1ccc(C)c(NC(=O)CN(C)C(=O)CN2CCC(C)CC2)c1,5,3
CCc1nn(CCCC(=O)NCCC(C)C)c(=O)c2cc3occc3n12,9,6
Cn1cc(-c2ccc3c(c2)N(CCN2CCOCC2)C(=O)COC3)cn1,6,1

# Continuation:
Molecule,NPYLR7 agonist,NPYLR7 agonist max-min
O=S(=O)(NCCN1CCOCC1)c1cc(Cl)sc1Cl,-7,-17
Cc1csc(=O)n1CC(=O)N(Cc1ccccc1)c1ccccn1,14,7
COc1ccc(-c2[nH]ncc2CNC(=O)CC2COCCN2)cc1 (stereo not drawn),16,3
C[C@H](NC(=O)c1sccc1OCc1ccc(Cl)cc1)c1ccccc1,-13,-16
Cc1cc(C)n(-c2nc3nonc3nc2Nc2ccccc2C)n1,-1,-2
CCN(CC)CCN(C(=O)/C=C/c1cccs1)c1nc2ccc(OC)cc2s1,-7,-12
O=C(CCc1ccco1)N1CCOC(COc2ccc(F)cc2)C1 (stereo not drawn),4,12
COc1cccc(-c2cc(C(=O)NCc3cccc(C(F)(F)F)c3)n3nc(C(C)(C)C)cc3n2)c1,-7,2
COc1ccc(N2C(=O)CSC2c2cccc(NC(=O)c3cccc(Br)c3)c2)cc1 (stereo not drawn),11,11
O=C(CSc1ccc(NC(=O)c2ccccc2)nn1)NCCc1ccccc1,4,6
Cc1ccsc1[C@@H]1CCN(Cc2ccnc(C(C)C)n2)C[C@H]1O,10,7
CN(C(=O)c1n[nH]c(=O)c2ccccc12)C1CCCc2ccccc21 (stereo not drawn),8,4
CCc1nc2ccc(C(=O)NCCc3c[nH]c4ccccc34)cn2c1N(C)Cc1ccc(NC(C)=O)cc1,2,-12
COc1ccc(C(NCc2c(C)noc2C)c2ccc(C)cc2)cc1 (stereo not drawn),0,7
CCc1cccc(C)c1NS(=O)(=O)c1ccc(I)cc1,14,20
CCc1ccccc1Sc1nccn2c(=O)n(CC(=O)N3CCN(c4ccc(F)cc4)CC3)nc12,-4,-4
Cc1[nH]n2c(=O)c3ccccc3nc2c1C=O,11,7
CCCC1=NN(C(C)=O)C(C(=O)N(CC(C)O)CC(C)O)O1 (stereo not drawn),-2,31
COc1ccc(CN2CC[C@H](CO)[C@H](O)C2)cc1Cn1cccn1,4,0
CC(=O)N1CCN(C(=O)c2cc(C)ccc2N2CCCC2=O)CC1,3,-1
C#CCn1c(=O)c2c(OCC)ccnc2n(C)c1=O,-1,-3
CC(C(=O)N1CCCC(n2cccn2)C1)N1CCOCC1 (stereo not drawn),8,5
O=c1[nH]c(/C=C/c2cccs2)c([N+](=O)[O-])c(=O)[nH]1,-9,-13
C#CCN(Cc1nc(CC)no1)S(=O)(=O)c1ccccc1,-1,-1
Cc1sc2nc(SCCC#N)n(C)c(=O)c2c1C,0,0

# Later entries:
Molecule,NPYLR7 agonist,NPYLR7 agonist max-min
Cc1ccc(CNC(=O)CSCc2nc3scc(-c4cccs4)c3c(=O)[nH]2)cc1,3,3
O=C(Nc1ccc(Cl)c(S(=O)(=O)Nc2ccccc2Cl)c1)c1ccsc1,-12,-14
COc1ccc(N2CCN(CCn3c(C)cn4c5c(=O)n(C)c(=O)n(C)c5nc34)CC2)cc1,1,1
CCOC(=O)C1=C(C)N=C2SCC(=O)N2C1c1ccc(OC)cc1 (stereo not drawn),7,3
CC1(C)CC(=O)C2C(=Nc3ccccc3NC2c2cccnc2)C1 (stereo not drawn),0,0
Cc1cc(C)c(S(=O)(=O)NNC(=O)c2cnccn2)c(C)c1,10,3
O=C1c2cnc(-c3cccs3)nc2CCN1Cc1cc(F)ccc1Cl,14,6
O=C(CN1C(=O)NC2(CCc3ccccc32)C1=O)Nc1ccc2c(c1)OCCCO2 (stereo not drawn),5,3
COc1ccc(CCN(C)C(=O)c2cncn2-c2ccc(-c3cc(C(F)(F)F)cc(C(F)(F)F)c3)cc2)cc1OC,6,-3
Cc1cc(C)n(-c2cccc(-c3ccc(S(N)(=O)=O)s3)c2)n1,5,2
COC(=O)C(NC(=O)C12CC3CC(CC(C3)C1)C2)C(C)C (stereo not drawn),1,8
CC1C(=O)N(c2ccc(Cl)cc2)CCN1C(=O)c1ccc(C(F)(F)F)cc1 (stereo not drawn),-1,12
CN1CCCc2ccc(S(=O)(=O)Nc3nc4ncccn4n3)cc21,0,40
O=C(CCN(CCc1ccccc1)c1nc(C2CC2)nc2cc(Cl)ccc12)NCc1ccco1,17,17
COCCCn1cnnc1CNC1CCCC(C)(C)C1 (stereo not drawn),15,14
CCCc1[nH]n(-c2ccc(F)cc2)c(=O)c1C1=C([n+]2ccccc2)C(=O)N(CC(C)C)C1=O,7,9
CS(=O)(=O)N1C[C@H]2CNC[C@@]2(C(=O)N2CCCCCC2)C1,1,0
COc1ccc(-c2nc(OCC(C)C)nn2-c2ccc(NC(=O)CC(C)C)cc2)cc1,6,14
O=C(Nc1ccc(Cl)cn1)c1cccc(S(=O)(=O)N2CCCCC2)c1,-7,-9
Cc1cc(C)cc(Oc2cc(C)nc(SCc3ccccc3C)n2)c1,8,6
CCCc1nc(CN2Cc3ccccc3-c3ccccc3C2)no1,-2,7
CC1CC(C)CN(C(=O)Cc2csc(NC(=O)c3ccco3)n2)C1 (stereo not drawn),-20,-19
COc1ccccc1Cn1c(C)c(C(=O)NCc2ccc3c(c2)OCCO3)sc1=O,12,7
CCOC(=O)[C@H]1C[C@]2(CCCCN(CCO)C2=O)N(C(=O)Cc2ccc(OC)cc2)[C@H]1c1ccco1,0,6
CN(CCc1ccc(Cl)c(Cl)c1)CC(O)COc1ccc(NS(C)(=O)=O)cc1 (stereo not drawn),-9,-13

# (cont.)
Molecule,NPYLR7 agonist,NPYLR7 agonist max-min
CC(C)(C)N1C(=O)c2ccc(C(=O)Nc3nccs3)cc2C1=O,-6,-13
OCC(O)CSc1nccn1-c1ccc(C(F)(F)F)cc1 (stereo not drawn),4,-9
O=C(O)c1ccccc1N(Cc1ccccc1)C(=O)c1ccccc1O,3,1
Cc1cnc(C(=O)Nc2cc3c(cc2Br)OCCO3)cn1,-2,-7
COCCN1CC(C(=O)NCCc2nc(C)c3c(n2)CCCC3)CCC1=O (stereo not drawn),10,4
CCOC(=O)c1c(C)n(CCC(=O)O)c2ccc(OC)cc12,-5,-10
O=C(Nc1cc2c(=O)[nH]cnc2cc1F)C1CCN(S(=O)(=O)c2ccc(Cl)cc2)CC1,10,5
COc1ccc(-c2onc(C)c2C(=O)NCCCN(C)c2ccccc2)cc1,0,2
CC(=O)Nc1ccc(CN2C(=O)C(C)ON=C2c2cnccn2)cc1 (stereo not drawn),-7,-7
O=C(C1CCCc2ccn(CCOc3ccccc3)c21)N1CCN(c2cnccn2)CC1 (stereo not drawn),25,15
Cc1ccc(S(=O)(=O)Nc2ccc(Br)cc2Br)c(C)c1,-6,-11
O=C(CCC(=O)N1CCc2ccccc2C1)N[C@@H]1C[C@H]2CC[C@@H]1C2,-7,-14
Cc1ccccc1-c1noc(-c2ccc(OC(=O)c3ccccc3)cc2)n1,-8,-14
C=CCn1c(=O)c2c(nc3n(-c4ccc(CC)cc4)c(C)c(C)n23)n(C)c1=O,10,12
COCC(=O)N1CCN(C(c2ccccc2)c2ccc(C)cc2)CC1 (stereo not drawn),11,15
COCCn1c(O)c(C(C)=Nc2ccc(Nc3ccccc3)cc2)c(=O)[nH]c1=S,-7,-8
